Assay outcomes from PubChem BioAssay.
RecA splice inh – Mtb RecA intein splicing inhibitors, primary screen, biochemical, fluorescence, HTS; cell-free RecA intein splicing; actives 0.75% (n = 290,000); Protein RecA (Mycobacterium tuberculosis (strain ATCC 25618 / H37Rv)), P9WHJ3; inhibition, %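 (about 9 µM by stock and volumes)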; in the data active = inhibition above about 30%; inconclusive = no clear call, values can overlap the other calls;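 also: 0% = vehicle wells and 100% = reference inhibitor control wells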
Target sequence (P9WHJ3 whole entry, looked up, canonical isoform): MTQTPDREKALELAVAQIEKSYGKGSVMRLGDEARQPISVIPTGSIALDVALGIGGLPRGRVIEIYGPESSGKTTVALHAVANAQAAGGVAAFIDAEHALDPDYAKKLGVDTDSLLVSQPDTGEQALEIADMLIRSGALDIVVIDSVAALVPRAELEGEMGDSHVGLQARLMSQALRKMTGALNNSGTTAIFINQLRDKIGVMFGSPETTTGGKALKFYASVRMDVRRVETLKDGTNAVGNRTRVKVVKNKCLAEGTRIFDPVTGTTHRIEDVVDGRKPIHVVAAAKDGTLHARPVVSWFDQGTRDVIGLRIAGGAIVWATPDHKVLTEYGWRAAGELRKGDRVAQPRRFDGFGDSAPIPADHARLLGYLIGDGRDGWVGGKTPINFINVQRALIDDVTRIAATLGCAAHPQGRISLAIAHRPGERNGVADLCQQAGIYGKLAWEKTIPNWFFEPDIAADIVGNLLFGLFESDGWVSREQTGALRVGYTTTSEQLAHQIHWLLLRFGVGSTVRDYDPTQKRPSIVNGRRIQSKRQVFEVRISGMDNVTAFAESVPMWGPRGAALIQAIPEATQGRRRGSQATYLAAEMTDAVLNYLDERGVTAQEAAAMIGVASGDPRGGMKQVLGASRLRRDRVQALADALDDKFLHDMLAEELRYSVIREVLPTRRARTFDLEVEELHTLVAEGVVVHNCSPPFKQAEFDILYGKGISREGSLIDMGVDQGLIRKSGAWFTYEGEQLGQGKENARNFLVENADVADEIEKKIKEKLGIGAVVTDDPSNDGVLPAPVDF
Mtb H37Rv – M. tuberculosis H37Rv growth inhibitors, H37Rv strain (AID 1626); M. tuberculosis H37Rv growth inhibition; higher % means a stronger effect; inhibition, % at 10 µM; hits with a dose series show IC50 in µM; actives 0.95% (n = 220,000);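 active = confirmed in a dose series; inconclusive = inhibition above 80% but not taken into the dose series; inactive = below 80% or under 30% at every dose of the series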;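 also: bacteria incubated seven days before Alamar blue readout; 0% = bacteria only wells and 100% = bacteria with antibiotic wells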
Mtb betalactam – beta-lactam sensitization of Mtb H37Rv, H37Rv | M. tuberculosis H37Rv growth with meropenem, percent inhibition; hits of this screen are not shown here | inhibition, % at 25 µM | actives 0.27% (n = 330,000);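 active = about 74% or more and at least 40 points above the plate without the antibiotic, then above 30% in a dose series; inconclusive = first-round hits that could not be retested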;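 also: growth measured after seven days incubation then overnight dye step; 0% = bacteria only wells and 100% = bacteria with antibiotic; twin plates without the antibiotic show which effects depend on it; some results filed as inactive read as strong as hits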
Arbovirus inh – antivirals against arbovirus infection, primary screen, cell-based, full library, 10K replicate subset | arbovirus infection cell-based antiviral screen | inhibition, % at 10 µM | actives 0.37% (n = 200,000);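 active = inhibition from about 30%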;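 also: bluetongue infection of BSR cells; cell survival read as ATP light after 72 h; 0% = infected wells without compound and 100% = uninfected wells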
YopH inh – YopH tyrosine phosphatase inhibitors, primary screen, biochemical, fluorescence Ex485/Em525. inhibition, %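 (about 10 µM by stock and volumes)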. actives 0.16% (n = 140,000). AID 898, 2007;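 active = inhibition of 50% or more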;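 also: controls were vehicle for no effect and minimum signal wells for full effect; inactives centre near -20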
Arbovirus inh repeat – further read-out of Arbovirus inh, marked with its call; inhibition, %; measured here: 10K subset replicate screen; many hits read low in the repeat;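 first of two repeat runs on a subset; 0% = infected and 100% = uninfected wells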
* marks the source's active call; other numbers are inactive results; u = inconclusive; x = not tested or not shown; & = joins results of further samples. The list is partial; count on the stated rates, not on these rows.

SMILES | RecA splice inh | Mtb H37Rv | Mtb betalactam | Arbovirus inh | YopH inh | others
CC(C)(C)N(CC#CCC1(O)c2ccccc2-c2ccccc21)CCO | 0.0 | -11% | 6 | -1 | x
CN(C)S(=O)(=O)c1ccc(C(=O)Nc2ccc(Cl)cc2)cc1 | 1.7 | 9% | -10 | 4 | -45 | Arbovirus inh repeat=-2
O=S1CC/C(=N\O)c2ccccc21 (stereo not given) | -1.8 | 0% | -21 | 1 | 28
Cc1cc(=O)c(C(=O)O)nn1-c1ccccc1Cl | -1.7 | x | -7 | x | x
Cc1csc(=O)n1CCC(=O)OCC(=O)Nc1cc([N+](=O)[O-])ccc1Cl | 2.2 | x | 1 | x | x
O=C(CSCc1ccccc1)Nc1cccc(C(=O)Nc2ccc(C(=O)O)cc2)c1 | 0.5 | x | 3 | 0 | -28
COc1ccc(CC(=O)NNC(=O)CSc2nnc(Cc3ccc(OC)cc3)n2-c2ccccc2)cc1 | 1.8 | -6% | -6 | 0 | -41
O=C1NC2(CCCCCC2)C(=O)N1Cc1ccccc1 | -3.0 | x | 6 | x | x
Cc1cccc(OCc2nnc(SCC(=O)Nc3cccc(C(=O)N4CCOCC4)c3)n2C)c1 | -0.5 | -11% | -3 | 9 | -30
CCCCCN(C(=O)COC(=O)COc1c(C)cc(C)cc1C)c1c(N)n(CCCC)c(=O)[nH]c1=O | 0.9 | x | -1 | x | x
CC(C)(C)NC(=O)NC(=O)CN1CCc2ccccc21 | -0.2 | 4% | -9 | 4 | x
CCCc1noc(-c2cccc([N+](=O)[O-])c2)n1 | -1.0 | 9% | -5 | 11 | x
COc1ccc(-c2nn3c(C4CCCCC4)nnc3s2)cc1OC | -0.7 | 5% | 40 | -10 | -34
COC(/C=C/Nc1ccc(OC)cc1)=C(C#N)C#N | -1.6 | -5% | 27 | 5 | -35
CCOc1ccc(-n2cc(C(=O)NCCOC)c3cc(OC)c(OC)cc3c2=O)cc1 | -1.4 | x | 23 | x | x
COc1ccc(F)cc1S(=O)(=O)NCC(c1ccc2c(c1)OCO2)N1CCN(C)CC1 (stereo not given) | -6.8 | x | -9 | x | x
Cc1nc(CS(=O)(=O)c2ccccc2)cc(N2CCN(c3ccccc3F)CC2)n1 | -1.1 | 4% | 2 | 12 | x
CC(C)CS(=O)(=O)C1=NN2C(=N)/C(=C\c3ccc(OC(=O)c4ccco4)cc3)C(=O)N=C2S1 | 40* | x | 98 | x | x
C[C@@H]1C[C@H]2[C@@H]3CCC4=CC(=O)C=C[C@]4(C)[C@@]3(F)[C@@H](O)C[C@]2(C)[C@@]1(O)C(=O)COP(=O)(O)O | 2.0&-2.0 | 11% | -6 | 18 | -5
Cc1noc(/C=C/N(C)C)c1S(=O)(=O)N1CCC(C(=O)NC(C)(C)C)CC1 | -1.7 | x | -9 | x | x
CCOc1ccc(NC(=O)CN2CCN(CC(=O)Nc3ccc(Cl)c(C(F)(F)F)c3)CC2)cc1 | 5.8 | 7.9µM* | 100 | -22 | -10
CC(C)[C@H](NC(N)=O)C(=O)Nc1ccc(F)c(Cl)c1 | 1.3 | -4% | -6 | 4 | x
O=C(CNC(=O)c1ccccc1)OCc1nc2ccccc2s1 | 2.2 | -2% | 2 | -4 | -18
O=C(O)CNC(=O)CCN1C(=O)c2ccccc2C1=O | 1.8 | -6% | -8 | -6 | -8
CCOC(=O)c1cc(C)sc1NC(=O)C(c1ccccc1)c1ccccc1 | 2.7 | 11% | -4 | -5 | -28

Two compounds drawn at random from the list so far, as already listed:
SMILES | RecA splice inh | Mtb H37Rv | Mtb betalactam | Arbovirus inh | YopH inh | others
O=C(CNC(=O)c1ccccc1)OCc1nc2ccccc2s1 | 2.2 | -2% | 2 | -4 | -18
COc1ccc(CC(=O)NNC(=O)CSc2nnc(Cc3ccc(OC)cc3)n2-c2ccccc2)cc1 | 1.8 | -6% | -6 | 0 | -41

(list continues)
SMILES | RecA splice inh | Mtb H37Rv | Mtb betalactam | Arbovirus inh | YopH inh | others
Cc1ccc(Cn2c(SCC(=O)NCC3CCCO3)nc3ccsc3c2=O)cc1 (stereo not given) | 1.1 | -1% | -12 | 1 | x
Cc1cc2c([nH]c3ccccc32)c(C)n1 | -19 | x | 0 | x | x
CC(C)(C)c1ccc(-n2ncc3c2CCCC3NC(=O)c2csnn2)cc1 (stereo not given) | -3.2 | x | 7 | x | x
COC(=O)c1cc(-c2c(-c3ccc4c(c3)OCO4)noc2-c2ccsc2)cc([N+](=O)[O-])c1 | -2.8 | x | -1 | x | x
Cc1cccn(Cc2c(F)cccc2Cl)c1=O | 0.9 | 2% | -7 | x | x
O=C(CCN1C(=O)/C(=C/c2ccc(F)cc2)SC1=S)N[C@@H](CO)Cc1ccccc1 | 5.0 | x | 0 | x | x
COc1cccc(C(=O)Nc2c(C)n[nH]c2C)c1 | -0.6 | -2% | 9 | 2 | 8
O=S(=O)(c1ccc(Cl)s1)N1CCc2ccccc2C1 | -0.7 | 3% | 7 | -4 | -6
O=C(O)c1ccccc1-c1ccccc1C(=O)NCc1ccco1 | 0.0 | -12% | -6 | 7 | -3
O=C(CCc1nnc(Cc2ccc(-c3ccccc3)cc2)o1)NCC1CC1 | -1.6 | 2% | -2 | -2 | x
CC(C(=O)Nc1ccncc1)(c1ccccc1)c1ccccc1 | 4.3 | 3% | 0 | -7 | x
Cc1cccc(C)c1NC(=O)CS(=O)CC(=O)Nc1ccc(N2CCOCC2)cc1 (stereo not given) | -0.6 | x | -5 | x | x
CCC(=O)n1nc(-c2ccc(OC)cc2)nc1NCc1cccs1 | 1.6 | 12% | x | -5 | x
CCOc1ccc(NC(=O)CN(C)C(=O)CCCOc2ccc(Br)cc2)cc1OCC | -1.0 | x | -12 | x | x
Cc1csc(NC(=O)CSc2nc3ccccc3c3c2CCCC3)n1 | 5.2 | 73% | 45 | 4 | -11
O=C(CNC(=O)c1cccs1)OCC(=O)c1ccc(Cl)cc1 | 3.9 | 2% | -2 | 0 | x
CCNC(=S)N/N=C/c1sccc1C | 1.3 | -5% | -7 | 9 | x
CC(C)(CNCC(O)c1ccccc1)N1CCOCC1 (stereo not given) | 3.4 | -6% | -7 | 1 | -43
COc1cc(C(=S)N2CCOCC2)ccc1OC(=O)/C=C/c1ccco1 | -1.7 | 2% | -3 | 7 | x
Cc1cccc(N2CCN(C(=O)C34CC5CC(CC(C5)C3)C4)CC2)c1C | 16 | 12% | 9 | -24 | -51
Cc1cc(C)nc(SCC2COc3ccccc3O2)n1 (stereo not given) | 4.3 | -8% | -9 | 1 | -58
O=C(Nc1ccccc1C1CC1)c1cccs1 | 1.6 | -1% | 6 | -1 | -30 | Arbovirus inh repeat=-4
O=C(Nc1ccc2c(c1)OCO2)C1CCN(S(=O)(=O)Cc2ccccc2)CC1 | x | x | -6 | -19 | -25
Cc1c(-c2ccccc2)nc2ccccc2c1C(=O)NCc1cccs1 | 0.3 | 1% | -1 | 7 | -22
CCOC(=O)c1ccc(NC(=O)NCCc2ccccc2OC)cc1 | 2.5 | 6% | u | -25 | x

The listing continues.
SMILES | RecA splice inh | Mtb H37Rv | Mtb betalactam | Arbovirus inh | YopH inh | others
CCOC(=O)N1CCN(C(=O)COc2ccc(S(=O)(=O)NCc3ccccc3)cc2)CC1 | -3.7 | -5% | 0 | 10 | -35
Cc1cccc(NC(=O)C2CCCN(C(=O)Nc3ccc(F)cc3)C2)c1C (stereo not given) | 0.9 | x | -3 | x | x
CCOC(=O)c1[nH]c2ccccc2c1NC(=O)c1cc(OC)c(OC)c(OC)c1 | -0.1 | 3% | -3 | x | 2
COC(=O)CC(c1ccc(C#N)cc1)n1c(C)ccc1C (stereo not given) | -0.7 | 2% | 6 | 3 | x
COc1cc(C(c2sc3ncnn3c2O)N2CCN(c3ccccc3F)CC2)cc(OC)c1OC (stereo not given) | 0.0 | 3% | -2 | 2 | -25 | Arbovirus inh repeat=14
CCc1ccc(CN(C(=O)c2oc3ccccc3c2C)C2CCS(=O)(=O)C2)cc1 (stereo not given) | 7.0 | x | 2 | x | x
Fc1ccc(CNC(=S)Nc2ccccc2F)cc1 | -0.9 | x | -3 | x | x
CCCCOc1ccc(-c2nc(/C=N/c3nccs3)c(O)o2)cc1 | -0.1 | 25% | 58 | 6 | -31
COc1ccc(OCC(=O)Nc2ccc3c(c2)C(=O)NC3=O)cc1 | -1.1 | x | -8 | x | x
NC(=O)COC(=O)c1sc2cc(F)ccc2c1Cl | -2.5 | 20% | 40 | -1 | x
C=CCN1C(=O)CS/C1=C(\C#N)S(=O)(=O)c1ccc(C)cc1 | 0.3 | -12% | -7 | 9 | -7
Cc1ccc(C(=O)N2CCCC(c3nc4c(nnn4Cc4ccccc4)c(=O)[nH]3)C2)cc1 (stereo not given) | -0.6 | -10% | -7 | -4 | -3
CCOc1ccc(-c2nc(CSCC(=O)NCCN3CCOCC3)c(C)o2)cc1 | -1.0 | -10% | 4 | 12 | -27
CSc1cccc(-n2cc(-c3ccc4c(c3)OCO4)[nH]c2=O)c1 | -0.8 | 2% | 1 | -17 | -42
O/N=C1\CCc2cc(Cl)ccc21 | -3.6 | 10% | -3 | -3 | -40
CC(C)OC(=O)CSc1nnc(C2CCCCC2)n1N | -1.5 | -11% | -1 | x | x
Cc1nc(NCCN2CCOCC2)c2nnn(Cc3c(F)cccc3Cl)c2n1 | 0.9 | 2% | 3 | 0 | -21
CCOC(=O)c1cn(CC)c2cc(N3CCCCC3)c(F)cc2c1=O | 6.6 | 6% | -7 | x | -23
NCCc1nc2ccccc2s1 | -2.2 | -9% | -1 | 6 | x
O=S(=O)(c1ccc(F)c(F)c1)N1CCN(S(=O)(=O)c2cccs2)CC1 | -0.3 | x | 7 | x | x
Cc1ccccc1OCCCC(=O)Nc1ccc(N2CCOCC2)cc1 | 1.0 | 0% | 9 | -16 | -8
CCOc1ccc(-c2nc(CSCC(=O)NCCCN3CCCC3=O)c(C)o2)cc1 | -0.2 | x | -3 | x | x
O=C1CCCc2nn(-c3ccccc3)c(-c3ccncc3)c21 | -5.0 | -6% | -12 | 1 | -37
COc1ccc(C(=O)NCCCn2ccnc2)cc1 | -0.2 | -4% | -3 | -1 | -22
Cc1cc(NC(=O)CSc2nnc(-c3ccccc3)o2)no1 | 1.6 | 5.7µM* | 99 | -2 | x

More results
SMILES | RecA splice inh | Mtb H37Rv | Mtb betalactam | Arbovirus inh | YopH inh | others
O=C(Cn1ncc(Cl)c(Cl)c1=O)N1CCOCC1 | 3.7 | 2% | -6 | -31 | x
O=C(CN1CCOCC1)Nc1nc(-c2ccccc2Cl)cs1 | 0.0 | x | -4 | x | x
O=C(NNC(=O)C1CCN(S(=O)(=O)c2ccc(Cl)cc2)CC1)c1ccccc1 | 0.3 | 0% | -1 | 7 | -9
CCCc1nnc(NC(=O)c2c(O)c3cccc4c3n(c2=O)CC4)s1 | -1.0 | u | 100 | x | x
COC(=O)c1cc(S(=O)(=O)NCCN2CCOCC2)cn1C | -0.4 | x | 3 | x | x
CCN(CC)C(=O)c1sc(NC(=O)c2ccc(OC)c([N+](=O)[O-])c2)c(C#N)c1C | -3.2 | 3% | 3 | 10 | -6
Cc1ccc(C(=O)NC(=S)Nc2cccc3nsnc23)cc1 | 17 | -1% | -8 | -12 | 14
COc1ccc(NC(=O)CCl)cn1 | 7.2 | 3% | u | x | x
Cc1nn(C)cc1S(=O)(=O)Nc1ccc2c(c1)OCCO2 | 0.9 | 1% | -5 | 4 | x
Nc1nnc(SCCCC(=O)c2ccccc2)s1 | -0.1 | 7% | 9 | 7 | -13
CCN1CCCC1CNC(=O)Cn1nc(C)n2c(cc3cc(F)ccc32)c1=O (stereo not given) | -1.2 | x | -9 | x | x
COc1cccc(NC(=O)CN(C)C(=O)/C=C/c2cn(Cc3ccccc3)nc2-c2cccnc2)c1 | 4.1 | x | -2 | x | x
Cc1nc(-c2ccc(F)cc2)c(CC(=O)Nc2cccc(S(=O)(=O)N3CCOCC3)c2)s1 | 1.8 | x | -2 | x | x
COC(=O)c1ccc(=O)c2nc3/c(=C/O)c(O)cc(=O)c3[nH]c12 | x | -5% | 6 | x | x
CC(C)Cc1nc(SCC(=O)NCC2CCCO2)c2c(=O)n(C)c(=O)n(C)c2n1 (stereo not given) | -1.8 | x | -6 | x | x

In the list so far, these have a COOH group.
SMILES | RecA splice inh | Mtb H37Rv | Mtb betalactam | Arbovirus inh | YopH inh | others
Cc1cc(=O)c(C(=O)O)nn1-c1ccccc1Cl | -1.7 | x | -7 | x | x
O=C(CSCc1ccccc1)Nc1cccc(C(=O)Nc2ccc(C(=O)O)cc2)c1 | 0.5 | x | 3 | 0 | -28
O=C(O)CNC(=O)CCN1C(=O)c2ccccc2C1=O | 1.8 | -6% | -8 | -6 | -8
O=C(O)c1ccccc1-c1ccccc1C(=O)NCc1ccco1 | 0.0 | -12% | -6 | 7 | -3
